Screening results deposited in PubChem by Broad Institute.
rRNA inh HTS: reduced GFP signal of wild-type E. coli, primary screen, bacterial rRNA inhibitor project, GFP/RFP fluorescence, OD600, single point. E. coli WT GFP vs humanized-ribosome RFP mutants, 24 h; hits give low values; DMSO median 0, no signal -100. GFP signal change (wild-type ribosome), % (concentration not given with the values). 350,000 tested, 1.6% active;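 active means significant combined selectivity score with lowered wild-type GFP, culture density cut under 30%, mutant RFP and density less affected; inactive means any of these conditions unmet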; further: one replicate is shown; some compounds called inactive have numbers as strong as hits
FGF22 binding: binders of human FGF22 protein, primary screen, FGF22 synaptogenesis inhibitor project, biophysical, thermal shift, single point | recombinant FGF22 thermal shift, SYPRO orange fluorescence; percent of sucrose octasulfate shift, DMSO zero | 340,000 tested, 1.5% active | calls only at 9.99 µM;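 active means melting point raised past a set limit in the mean and every replicate; three in four hits are not shown here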
Target sequence (Q9HCT0 whole entry, looked up): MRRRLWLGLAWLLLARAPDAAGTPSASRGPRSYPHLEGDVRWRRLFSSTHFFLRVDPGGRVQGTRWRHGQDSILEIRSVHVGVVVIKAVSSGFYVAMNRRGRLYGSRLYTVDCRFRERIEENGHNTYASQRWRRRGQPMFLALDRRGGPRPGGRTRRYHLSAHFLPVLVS
AF4-AF9 inh: inhibitors of AF4 peptide binding to AF9, primary screen, biochemical, AlphaScreen, biotin-AF4 peptide, FLAG-AF9, single point | inhibition, % at 10 µM | 350,000 tested, 0.47% active;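 active means every replicate reaching a set inhibition limit, whatever the replicate mean, cut at about 25% in these data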;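 further: 0% = plate neutral control median and 100% = total signal loss; the record names both 10 and 1 µM as test concentration; the first replicate is given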
Target sequence (P42568 whole entry, looked up): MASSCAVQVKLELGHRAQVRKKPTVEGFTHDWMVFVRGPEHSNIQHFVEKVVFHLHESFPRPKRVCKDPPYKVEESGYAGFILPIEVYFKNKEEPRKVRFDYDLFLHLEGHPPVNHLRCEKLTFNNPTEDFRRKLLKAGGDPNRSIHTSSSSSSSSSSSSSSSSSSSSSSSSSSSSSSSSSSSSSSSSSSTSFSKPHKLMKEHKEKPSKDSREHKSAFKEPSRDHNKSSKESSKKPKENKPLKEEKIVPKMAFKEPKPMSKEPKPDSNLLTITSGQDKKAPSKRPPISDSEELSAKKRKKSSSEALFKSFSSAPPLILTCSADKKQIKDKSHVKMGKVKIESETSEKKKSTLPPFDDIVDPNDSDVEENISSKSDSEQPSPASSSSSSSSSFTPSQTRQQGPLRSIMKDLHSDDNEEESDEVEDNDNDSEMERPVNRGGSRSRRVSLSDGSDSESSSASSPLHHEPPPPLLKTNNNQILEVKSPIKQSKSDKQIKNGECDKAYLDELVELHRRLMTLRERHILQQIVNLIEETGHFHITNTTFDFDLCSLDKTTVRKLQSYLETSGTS
rRNA inh HTS OD600: recorded beside rRNA inh HTS, whose call it bears; OD600 change, %; measured here: OD600 growth;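 optical density of the mix in the first replicate; 0 = DMSO median and -100 = no signal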
rRNA inh HTS RFP: further read-out of rRNA inh HTS, marked with its call; RFP signal change, %; measured here: RFP humanized mutant strains;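 first replicate; 0 = DMSO median and -100 = no signal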
* hit, by the source's call. A portion of the library (hit frequency here may not be typical).

For CC(C)NC(=O)N[C@H]1CC[C@H](CC(=O)NC2Cc3ccccc3C2)O[C@H]1CO the results were rRNA inh HTS 2, FGF22 binding inactive, AF4-AF9 inh -1.8, rRNA inh HTS OD600 7 and rRNA inh HTS RFP -0.5.
For O=S(=O)(c1ccccc1)N1CC2(C1)[C@H](c1ccccc1)[C@H](CO)N2CC1CCOCC1 the results were rRNA inh HTS -6, FGF22 binding inactive, AF4-AF9 inh -2.9, rRNA inh HTS OD600 -5 and rRNA inh HTS RFP 2.7.
For CCCC#Cc1cnc2c(c1)C(=O)N([C@@H](C)CO)C[C@H](C)[C@@H](CN(C)C(=O)NC1CCCC1)O2 the results were rRNA inh HTS 2, FGF22 binding inactive, AF4-AF9 inh -0.1, rRNA inh HTS OD600 2 and rRNA inh HTS RFP 1.5.
Screening O=C(CSc1nc2scc(-c3cccs3)c2c(=O)n1CCc1ccccc1)N1CCCC1 returned rRNA inh HTS 11, FGF22 binding inactive, AF4-AF9 inh -12, rRNA inh HTS OD600 -3 and rRNA inh HTS RFP 1.0.
For CN(N=Cc1ccc([N+](=O)[O-])cc1)c1ccccn1 the results were rRNA inh HTS 12, FGF22 binding inactive, AF4-AF9 inh 1.6, rRNA inh HTS OD600 11 and rRNA inh HTS RFP 17.
For COc1ccc(NC(=O)Nc2cccc3c2O[C@H](CN(C)S(=O)(=O)c2cccs2)[C@H](C)CN([C@H](C)CO)C3=O)cc1 the results were rRNA inh HTS -1, FGF22 binding inactive, AF4-AF9 inh 2.0, rRNA inh HTS OD600 -8 and rRNA inh HTS RFP 2.7.
`C[C@@H]1CN([C@H](C)CO)C(=O)Cc2cc(NC(=O)CCC(F)(F)F)ccc2O[C@H]1CN(C)Cc1ccc(C(=O)Nc2ccccc2N)cc1` gave rRNA inh HTS -2, FGF22 binding inactive, AF4-AF9 inh -14, rRNA inh HTS OD600 -4 and rRNA inh HTS RFP 0.4.
For CCCC#Cc1cnc2c(c1)C(=O)N([C@H](C)CO)C[C@H](C)[C@@H](CN(C)Cc1ccncc1)O2 the results were rRNA inh HTS 3, FGF22 binding inactive, AF4-AF9 inh 2.6, rRNA inh HTS OD600 -2 and rRNA inh HTS RFP 2.8.
O=C(c1ccccc1)N1N=C(c2ccc(F)cc2)CC1c1ccc(F)cc1 (centres undefined) was read as rRNA inh HTS -19, FGF22 binding inactive, AF4-AF9 inh -6.2, rRNA inh HTS OD600 -17 and rRNA inh HTS RFP -0.6.
For C[C@H](CO)N1C[C@H](C)[C@@H](CN(C)C(=O)C2CCOCC2)Oc2ncc(C#CC(C)(C)O)cc2C1=O the results were rRNA inh HTS 5, FGF22 binding inactive, AF4-AF9 inh -0.3, rRNA inh HTS OD600 -2 and rRNA inh HTS RFP -2.0.
Screening N#C[C@H]1[C@@H](c2ccc(C#CC3CCCC3)cc2)[C@H](CO)N1C(=O)Nc1ccc(F)cc1 returned rRNA inh HTS -20, FGF22 binding inactive, AF4-AF9 inh 0.9, rRNA inh HTS OD600 -36 and rRNA inh HTS RFP 20.
For C[C@H]1CN([C@@H](C)CO)S(=O)(=O)c2ccc(-c3cccnc3)cc2O[C@@H]1CN(C)C(=O)NC1CCCC1 the results were rRNA inh HTS -5, FGF22 binding inactive, AF4-AF9 inh -6.7, rRNA inh HTS OD600 -1 and rRNA inh HTS RFP 1.9.
COc1ccc2c3c(n(C)c2c1)[C@H](CO)N(C(=O)c1ccc(F)cc1)CC31CN(C)C1 was read as rRNA inh HTS 5, FGF22 binding inactive, AF4-AF9 inh -0.7, rRNA inh HTS OD600 6 and rRNA inh HTS RFP -0.5.
Screening CC1NC(=O)c2cc3ccccc3cc2-n2c1nc1cc(F)ccc1c2=O (centres undefined) returned rRNA inh HTS -3, FGF22 binding inactive, AF4-AF9 inh -0.9, rRNA inh HTS OD600 7 and rRNA inh HTS RFP -0.1.
For Cc1noc(C)c1S(=O)(=O)Nc1ccc2c(c1)C(=O)N([C@@H](C)CO)C[C@H](C)[C@@H](CN(C)C(=O)Nc1ccccc1)O2 the results were rRNA inh HTS 6, FGF22 binding inactive, AF4-AF9 inh -3.9, rRNA inh HTS OD600 7 and rRNA inh HTS RFP -1.5.
COc1ccc(NC(=O)N(C)C[C@@H]2OCCCC[C@@H](C)Oc3ccc(NC(=O)NC4CCCCC4)cc3C(=O)N([C@@H](C)CO)C[C@@H]2C)cc1 was read as rRNA inh HTS -1, FGF22 binding inactive, AF4-AF9 inh -0.6, rRNA inh HTS OD600 3 and rRNA inh HTS RFP -1.7.
For C[C@@H](NC(=O)C[C@H]1C=C[C@H](NC(=O)c2cccnc2)[C@@H](CO)O1)c1ccccc1 the results were rRNA inh HTS 0, FGF22 binding inactive, AF4-AF9 inh -14, rRNA inh HTS OD600 11 and rRNA inh HTS RFP 1.9.
Screening COc1ccc(S(=O)(=O)N(C)C[C@H]2Oc3ccc(NC(=O)Cc4ccccc4)cc3CC(=O)N([C@H](C)CO)C[C@@H]2C)cc1 returned rRNA inh HTS -1, FGF22 binding inactive, AF4-AF9 inh -0.3, rRNA inh HTS OD600 -8 and rRNA inh HTS RFP 5.0.
Screening C[C@H](CO)N1C[C@H](C)[C@@H](CN(C)Cc2ccncc2)OCCCC[C@H](C)Oc2ccc(NC(=O)CCC(F)(F)F)cc2C1=O returned rRNA inh HTS 0, FGF22 binding inactive, AF4-AF9 inh -8.2, rRNA inh HTS OD600 -4 and rRNA inh HTS RFP -0.9.
CC=Cc1ccc2n(c1=O)C[C@H]1[C@H](CO)[C@@H](C(=O)NCCC)N(CCC(F)(F)F)[C@@H]21 (mixture of isomers) was read as rRNA inh HTS 0, FGF22 binding inactive, AF4-AF9 inh -3.3, rRNA inh HTS OD600 6 and rRNA inh HTS RFP 3.3.
`C[C@@H]1CN([C@@H](C)CO)C(=O)c2cccc(NC(=O)Nc3ccc(F)cc3)c2O[C@H]1CN(C)S(=O)(=O)c1cccs1` gave rRNA inh HTS -4, FGF22 binding inactive, AF4-AF9 inh 6.8, rRNA inh HTS OD600 -12 and rRNA inh HTS RFP 0.5.
For C[C@@H]1CN([C@@H](C)CO)C(=O)c2cccc(NS(=O)(=O)c3ccccc3)c2O[C@@H]1CN(C)Cc1ccc(C(=O)Nc2ccccc2N)cc1 the results were rRNA inh HTS -6, FGF22 binding inactive, AF4-AF9 inh 0.0, rRNA inh HTS OD600 -3 and rRNA inh HTS RFP 1.0.
For CCNC(=O)C[C@H]1CC[C@@H]2[C@H](COC[C@@H](O)CN2Cc2ccc(Cl)c(Cl)c2)O1 the results were rRNA inh HTS -4, FGF22 binding inactive, AF4-AF9 inh -0.3, rRNA inh HTS OD600 -11 and rRNA inh HTS RFP -1.9.
`C[C@H](CO)N1C[C@H](C)[C@@H](CN(C)C(=O)Nc2ccc(F)cc2)Oc2ccc(NS(=O)(=O)c3ccccc3)cc2CC1=O` gave rRNA inh HTS 2, FGF22 binding inactive, AF4-AF9 inh -1.0, rRNA inh HTS OD600 1 and rRNA inh HTS RFP -0.4.
For COc1ccccc1-c1cn(CC[C@H]2CC[C@H](NC(=O)c3cnccn3)[C@H](CO)O2)nn1 the results were rRNA inh HTS -2, FGF22 binding inactive, AF4-AF9 inh 0.2, rRNA inh HTS OD600 -8 and rRNA inh HTS RFP -1.4.
CN(C)CC(=O)N[C@@H]1CC[C@H](CCn2cc(CN(C)C)nn2)O[C@H]1CO was read as rRNA inh HTS 4, FGF22 binding inactive, AF4-AF9 inh -8.3, rRNA inh HTS OD600 2 and rRNA inh HTS RFP -1.7.
Screening CN(C)C(=O)c1ccc(-c2cccc(-c3nc(C(=O)NC4CCC4)cc4c3[C@H](CCO)N([S@@](=O)C(C)(C)C)C4)c2)cc1 returned rRNA inh HTS -2, FGF22 binding inactive, AF4-AF9 inh -0.2, rRNA inh HTS OD600 2 and rRNA inh HTS RFP 12.
Screening C[C@H](CO)N1C[C@H](C)[C@@H](CN(C)S(=O)(=O)c2ccc(F)cc2)Oc2ccc(NC(=O)CCN3CCOCC3)cc2CC1=O returned rRNA inh HTS 4, FGF22 binding inactive, AF4-AF9 inh 3.4, rRNA inh HTS OD600 2 and rRNA inh HTS RFP -3.9.
C[C@@H]1CN([C@H](C)CO)C(=O)c2cccc(NS(=O)(=O)c3ccc(F)cc3)c2O[C@@H]1CN(C)C(=O)Nc1ccc(C(F)(F)F)cc1 was read as rRNA inh HTS -14, FGF22 binding inactive, AF4-AF9 inh 0.2, rRNA inh HTS OD600 -23 and rRNA inh HTS RFP 1.6.
For O=C(NCC[C@H]1CC[C@@H](NS(=O)(=O)Cc2ccccc2)[C@@H](CO)O1)C1CCOCC1 the results were rRNA inh HTS 2, FGF22 binding inactive, AF4-AF9 inh 0.9, rRNA inh HTS OD600 2 and rRNA inh HTS RFP -2.7.

Ordered by molecular weight (falling): 6 of the compounds above
For C[C@@H]1CN([C@@H](C)CO)C(=O)c2cccc(NS(=O)(=O)c3ccccc3)c2O[C@@H]1CN(C)Cc1ccc(C(=O)Nc2ccccc2N)cc1 the results were rRNA inh HTS -6, FGF22 binding inactive, AF4-AF9 inh 0.0, rRNA inh HTS OD600 -3 and rRNA inh HTS RFP 1.0.
C[C@@H]1CN([C@H](C)CO)C(=O)c2cccc(NS(=O)(=O)c3ccc(F)cc3)c2O[C@@H]1CN(C)C(=O)Nc1ccc(C(F)(F)F)cc1 was read as rRNA inh HTS -14, FGF22 binding inactive, AF4-AF9 inh 0.2, rRNA inh HTS OD600 -23 and rRNA inh HTS RFP 1.6.
Screening C[C@H](CO)N1C[C@H](C)[C@@H](CN(C)S(=O)(=O)c2ccc(F)cc2)Oc2ccc(NC(=O)CCN3CCOCC3)cc2CC1=O returned rRNA inh HTS 4, FGF22 binding inactive, AF4-AF9 inh 3.4, rRNA inh HTS OD600 2 and rRNA inh HTS RFP -3.9.
`C[C@@H]1CN([C@@H](C)CO)C(=O)c2cccc(NC(=O)Nc3ccc(F)cc3)c2O[C@H]1CN(C)S(=O)(=O)c1cccs1` gave rRNA inh HTS -4, FGF22 binding inactive, AF4-AF9 inh 6.8, rRNA inh HTS OD600 -12 and rRNA inh HTS RFP 0.5.
For O=C(NCC[C@H]1CC[C@@H](NS(=O)(=O)Cc2ccccc2)[C@@H](CO)O1)C1CCOCC1 the results were rRNA inh HTS 2, FGF22 binding inactive, AF4-AF9 inh 0.9, rRNA inh HTS OD600 2 and rRNA inh HTS RFP -2.7.
CN(C)CC(=O)N[C@@H]1CC[C@H](CCn2cc(CN(C)C)nn2)O[C@H]1CO was read as rRNA inh HTS 4, FGF22 binding inactive, AF4-AF9 inh -8.3, rRNA inh HTS OD600 2 and rRNA inh HTS RFP -1.7.

(next part)
Screening O=C(Nc1cccc(S(=O)(=O)N2CCCC2)c1)[C@@H]1O[C@H](CO)[C@@H](O)[C@H]1O returned rRNA inh HTS 12, FGF22 binding inactive, AF4-AF9 inh -2.3, rRNA inh HTS OD600 10 and rRNA inh HTS RFP -1.4.
OC(c1ccccc1)(c1nc(-c2csc3ccccc23)cs1)C(F)(F)F (centres undefined) was read as rRNA inh HTS -36, FGF22 binding inactive, AF4-AF9 inh -1.8, rRNA inh HTS OD600 -69 and rRNA inh HTS RFP -9.8.
For C[C@@H]1CN([C@H](C)CO)C(=O)c2ccccc2-c2ccccc2CO[C@@H]1CN(C)C(=O)c1ccncc1 the results were rRNA inh HTS 2, FGF22 binding inactive, AF4-AF9 inh -4.7, rRNA inh HTS OD600 5 and rRNA inh HTS RFP -2.7.
`COc1ccccc1C#Cc1ccc2c(c1)O[C@@H](CN(C)Cc1ccccc1)[C@H](C)CN([C@@H](C)CO)S2(=O)=O` gave rRNA inh HTS 4, FGF22 binding inactive, AF4-AF9 inh 6.7, rRNA inh HTS OD600 2 and rRNA inh HTS RFP 0.3.
`CC(C)NC(=O)Nc1ccc2c(c1)C(=O)N([C@@H](C)CO)C[C@H](C)[C@@H](CN(C)S(=O)(=O)c1ccc(F)cc1)O2` gave rRNA inh HTS 3, FGF22 binding inactive, AF4-AF9 inh -0.1, rRNA inh HTS OD600 2 and rRNA inh HTS RFP -4.5.
For CC(C)C#Cc1ccc2c(c1)O[C@@H](CN(C)CC1CCOCC1)[C@H](C)CN([C@@H](C)CO)S2(=O)=O the results were rRNA inh HTS -6, FGF22 binding inactive, AF4-AF9 inh 5.6, rRNA inh HTS OD600 -47 and rRNA inh HTS RFP 30.
Screening C[C@@H]1CCCCO[C@H](CN(C)CC2CC2)[C@H](C)CN([C@@H](C)CO)C(=O)c2cc(NC(=O)Nc3ccccc3)ccc2O1 returned rRNA inh HTS 2, FGF22 binding inactive, AF4-AF9 inh 15, rRNA inh HTS OD600 3 and rRNA inh HTS RFP 2.7.
`CC(C)NC(=O)N[C@H]1CC[C@@H](CC(=O)NCc2ccc(Oc3ccccc3)cc2)O[C@H]1CO` gave rRNA inh HTS -2, FGF22 binding inactive, AF4-AF9 inh 3.4, rRNA inh HTS OD600 -10 and rRNA inh HTS RFP -0.3.
Screening C[C@@H]1CCCCO[C@H](CN(C)S(=O)(=O)c2ccc(Cl)cc2)[C@@H](C)CN([C@H](C)CO)C(=O)c2cc(NS(=O)(=O)c3ccccc3)ccc2O1 returned rRNA inh HTS 0, FGF22 binding inactive, AF4-AF9 inh -10, rRNA inh HTS OD600 1 and rRNA inh HTS RFP -2.3.
